VDR inhibitor – Inhibitors of the vitamin D receptor (VDR): qHTS; Vitamin D3 receptor (Homo sapiens), P11473; VDR-SRC2-3 peptide fluorescence polarization, 2 h; 400,000 compounds, 0.93% hits; Potency, µM, without a hit: max response, negative = inhibition, hits mostly inhibitors; active = well fitted inhibition curve with a large enough effect; inconclusive = small, poorly fitted or top-dose-only effect, or another doubt; inactive = no such curve, though single readings can be large or run the other way; also: series mostly up to about 120 µM
Target sequence (P11473 whole entry, looked up): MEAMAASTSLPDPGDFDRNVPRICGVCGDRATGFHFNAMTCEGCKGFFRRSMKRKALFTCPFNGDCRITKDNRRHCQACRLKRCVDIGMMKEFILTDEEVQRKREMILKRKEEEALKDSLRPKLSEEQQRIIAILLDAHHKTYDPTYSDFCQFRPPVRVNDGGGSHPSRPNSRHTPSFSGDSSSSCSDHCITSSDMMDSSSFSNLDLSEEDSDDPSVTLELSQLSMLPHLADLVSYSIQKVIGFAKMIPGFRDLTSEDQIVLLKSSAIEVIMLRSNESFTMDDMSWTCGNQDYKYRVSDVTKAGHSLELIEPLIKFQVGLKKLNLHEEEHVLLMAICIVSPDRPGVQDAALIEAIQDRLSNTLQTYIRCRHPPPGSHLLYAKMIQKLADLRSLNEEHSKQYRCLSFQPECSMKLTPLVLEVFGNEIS
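Reagent solutions, kept cold and dark, are dispensed first; compounds are then pinned in at 23 nl, plates briefly spun, and incubated 2 h at ambient temperature. Inhibition of VDR–SRC2-3 peptide binding is read by fluorescence polarization.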
Starred values were filed as active, the others as inactive; ? = inconclusive; & = joins results of further samples; [ ] = dose if it differs, or a comment. % is scaled to controls: 0 for no effect and ±100 for the full control effect; potency is read from the fitted curve at half-maximal effect. These rows are one share of the data; rates above refer to the full screens.

entry	VDR inhibitor	molecule
1	-12%	Cc1ccnc(SCc2cc(=O)c(OC(=O)c3cc([N+](=O)[O-])ccc3Cl)co2)n1
2	-1%&-12%	Cc1ccc2nc(NC(=O)c3ccc(S(=O)(=O)N4CCCc5ccccc54)cc3)sc2c1
3	0%	O=C(CC(c1ccccc1)c1ccccc1O)NCCN1CCOCC1 (stereo not given)
4	1%	CO/N=C/c1ccc(N2CCN(C(=O)c3ccc(C)cc3)CC2)c([N+](=O)[O-])c1
5	-7%	Cc1ccc(C)c(NC(=O)CSc2nccn2-c2cccc(C)c2C)c1
6	6%	COc1ccc(CNC(=O)c2oc3c(c2C)-c2nn(Cc4ccc(Cl)cc4)cc2CC3)cc1
7	-9%	S=C(N/N=C/c1ccccc1)N1CCOCC1
8	-19%	CCC(C)(C)NC(=O)CCCSc1nc2ccccc2[nH]1
9	-17%	Cc1ccc(CN2CCN(C/C=C/c3ccc(F)cc3)CC2CCO)o1 (stereo not given)
10	-4%	CCOC(=O)c1ccc(S(=O)(=O)NCC(C)(C)N2CCOCC2)cc1
11	-4%	Cc1cccc(NC(=O)[C@@H](NC(=O)[C@@H]2Cc3ccccc3CN2)C(C)C)c1
12	-5%	O=C(c1ccc(N2CCNCC2)cc1)c1cccnc1
13	50µM*	CCCCN1C(=O)/C(=C(/C#N)C(N)=O)c2ccccc21
14	-8%	O=C(CSc1nc2c(c(=O)[nH]1)CCC2)Nc1cccc(F)c1
15	7%	COc1ccc(C(=O)NC2CCCCCC2)cc1S(=O)(=O)N1CCOCC1
16	-5%	CC(=O)Nc1ccc(NC(=O)/C(Cl)=C/c2ccccc2)cc1
17	13%	C/C(=N\N=C1\NC(=O)C(CC(=O)Nc2ccc(C)c(Cl)c2)S1)C(C)C (stereo not given)
18	-14%	S=C(Nc1ccccc1)N1CCN(C/C=C/c2ccccc2)CC1
19	15%	CCOC(=O)N1CCN(Cc2nc3cc(NC(=O)CC(C)C)ccc3n2C(C)C)CC1
20	-7%	CCOC(=O)c1cnc2c(ccc3ccccc32)c1Nc1ccc(Cl)cc1
21	-15%	CCOc1ncccc1C(=O)N1CCN(C(c2ccccc2)c2ccccc2)CC1
22	-4%	O=c1cc(-c2ccc(OCc3ccccc3)cc2)oc2cc(OCc3ccccc3)cc(OCc3ccccc3)c12
23	0%	Cc1ccc([N+](=O)[O-])cc1S(=O)(=O)Nc1ccc(C(=O)NCc2ccccn2)cc1
24	-4%	COc1cc(C(=O)NC(C)c2cccc3ccccc23)cc(OC)c1OC (stereo not given)
25	9%	CN(C)c1cccc(C(=O)Nc2nc3ccc(S(=O)(=O)N4CCCC4)cc3s2)c1
26	12%	CCN(CC)CCOC(=O)c1ccc(NC(=O)Cn2ncc3c([nH]c4ccc(C)cc43)c2=O)cc1
27	1%	O=S(=O)(NCCc1cn(S(=O)(=O)c2ccccc2)c2ccccc12)c1ccccc1
28	-13%	Cc1nn(C)c(Cl)c1CN1CCC(CO)(CCOc2ccccc2)CC1
29	-19%	COc1cccc(-c2ccc3c(N)c(C(=O)c4ccc(F)cc4)sc3n2)c1
30	-10%	Cc1ccc(S(=O)(=O)N(Cc2ccccc2)c2ccccc2C(=O)Nc2ccccc2C(=O)NCc2ccco2)cc1
31	-2%	C=CCN(C(=O)CNC(=O)c1ccco1)C(C(=O)NC1CCCC1)c1ccc(OC)cc1 (stereo not given)
32	-7%	Cc1ccc(C(=O)NC2CCc3ccccc3C2=O)cc1 (stereo not given)
33	1%	COc1ccc(C(=O)C2CCCN(S(=O)(=O)C(C)C)C2)c(C)c1 (stereo not given)
34	5%	N#Cc1nc(Cc2cccc3ccccc23)oc1N1CCCCC1
35	-3%	O=C(O)Cc1nc2nc3c(c(=O)n2[nH]1)CCCC3
36	-9%	Cc1ccc2occ(-c3nn[nH]n3)c(=O)c2c1
37	-2%	Cc1n[nH]c(C)c1S(=O)(=O)N1CCC(C(=O)N2CCn3c2nc2ccccc23)CC1
38	-4%	O=C(/C(=N\Nc1ccc(Br)cc1)Sc1nnnn1-c1ccccc1)c1ccccc1
39	8%	CN1CCN(c2ccccc2NC(=S)NC(=O)c2cc3ccccc3o2)CC1
40	6%	COc1cc2c(cc1OC)CN(C(=O)Nc1ccccc1Cl)CC2
41	10%	CCOc1ccc(CCNC(=O)CCCN2C(=O)c3ccccc3C2=O)cc1OCC
42	22%	COc1ccc(N(CC(=O)NC2CCCC2)C(=O)Cn2nnc(-c3ccc(F)cc3)n2)cc1OC
43	-5%	COc1ccc(S(=O)(=O)Cc2ccc(C(=O)NC3CCCC3)o2)cc1
44	-8%	O=C(O)C1CSCN1S(=O)(=O)c1cccc2nsnc12 (stereo not given)
45	-25%	O=C(O)c1ccc2c(c1)-c1cc(C(=O)O)ccc1S2(=O)=O
46	12%	COC(=O)c1[nH]c2ccc(Cl)cc2c1NC(=O)Oc1ccccc1
47	-4%	COc1ccc(C(=O)NC2CC(C)(C)Cc3c2cnn3-c2ccccc2)cc1OC (stereo not given)
48	-3%	CCC(C)[C@H](NC(=O)N1CC(=O)Nc2ccccc21)C(=O)N1CCC[C@H]1C(=O)O (stereo not given in full)
49	-9%	Cc1nn(C)cc1C(C)NC(=O)c1cc(COc2cccc3cnccc23)on1 (stereo not given)
50	20%	O=C(c1ccccc1)N1CCN(Cc2c[nH]c3ccccc23)CC1

Remaining list, next part:
entry	VDR inhibitor	molecule
51	-28%	C=CCn1c(CCCNC(=O)C(C)(C)C)nc2ccccc21
52	-15%	CC(=O)Nc1ccc(NC(=O)CCc2nc3cccnc3n2Cc2cccs2)cc1
53	-9%	CNC(=S)N(CCc1cccc(C)c1)Cc1cc2cc(OC)c(OC)cc2[nH]c1=O
54	5%	CCOC(=O)c1ccc(NC(=O)CC(=O)Nc2ccc3nc4n(c(=O)c3c2)CCCCC4)cc1
55	-6%	OCCN1CCN(C(c2ccccc2Cl)c2sc3nc(-c4ccco4)nn3c2O)CC1 (stereo not given)
56	11%	COc1ccccc1NC(=O)C(C)OC(=O)C1CCC(C(C)(C)C)CC1 (stereo not given)
57	8%	O=C(O)/C=C/C(=O)NCC1CCC(CNC(=O)/C=C/C(=O)O)CC1 (stereo not given)
58	-22%	CC(=O)Nc1ccc(C(=O)COC(=O)c2ccco2)c(F)c1
59	1%	OC(CNCCC1C=Nc2ccccc21)Cn1c2ccc(Cl)cc2c2cc(Cl)ccc21 (stereo not given)
60	19%	O=C(OCC(=O)N1CCN(c2ccccc2)CC1)c1ccccn1

As entered above.
For VDR inhibitor, compound 51 is listed with -28%
For VDR inhibitor, compound 29 is listed with -19%

Later entries.
entry	VDR inhibitor	molecule
61	0%	CC(=O)c1cccc(NC(=O)N2CCCC2C(=O)Nc2c(C)cccc2C)c1 (stereo not given)
62	2%	Cc1ccc(S(=O)(=O)Nc2ccc(NC(=O)c3cccs3)cc2)cc1
63	1%	S=c1[nH]nc(-c2cccnc2)o1
64	5%	COCCNC(=O)C1CCC(Cn2c(=S)[nH]c3ccccc3c2=O)CC1 (stereo not given)
65	-15%	COc1ccc(CCN2C(=O)C3C4CC(C5C(C(=O)NN)=NOC45)C3C2=O)cc1OC (stereo not given)
66	14%	COc1ccc(NC(=O)C2CCN(c3nc4ccccc4nc3C(F)(F)F)CC2)cc1
67	-22%	CCOc1ccc(NC(=O)CSc2nnc(N)s2)c([N+](=O)[O-])c1
68	-4%	O[C@@](CCN1CCCC1)(c1ccccc1)C1CCCCC1
69	-17%	COc1ccc(NC(=O)CCCC(=O)O)cc1Cl
70	?	Clc1ccccc1-c1nc(NCCN2CCOCC2)c2ccccc2n1

Pulled by structure from the list above, 5 records:
entry	VDR inhibitor	molecule
69	-17%	COc1ccc(NC(=O)CCCC(=O)O)cc1Cl
66	14%	COc1ccc(NC(=O)C2CCN(c3nc4ccccc4nc3C(F)(F)F)CC2)cc1
67	-22%	CCOc1ccc(NC(=O)CSc2nnc(N)s2)c([N+](=O)[O-])c1
64	5%	COCCNC(=O)C1CCC(Cn2c(=S)[nH]c3ccccc3c2=O)CC1 (stereo not given)
70	?	Clc1ccccc1-c1nc(NCCN2CCOCC2)c2ccccc2n1

(further entries)
entry	VDR inhibitor	molecule
71	-15%	Cc1ccccc1NS(=O)(=O)c1ccc(OCC(=O)NCC2CCCO2)cc1 (stereo not given)
72	-8%	Cc1cc(C)nc(Nc2ncc(O)n2-c2ccc(C)c(Cl)c2)n1
73	-8%	Cc1cccc(-n2c(C)nc3cc(C(=O)NCc4ccc5c(c4)OCO5)ccc32)c1
74	-5%	Cc1occc1C(=O)Nc1ccc2c(c1)OCO2
75	5%	CCC(=O)N/N=C(\C)CC(=O)Nc1ccc(F)cc1
76	-8%	Cn1cccc1-c1cc(C(=O)N/N=C/c2ccc([N+](=O)[O-])cc2)[nH]n1
77	-4%	N#Cc1ccc(Oc2ccc(S(=O)(=O)N3CCCCC3)cn2)cc1
78	-22%	CN1CCN(C(=O)CCN2C(=O)/C(=C/c3ccccc3Cl)SC2=S)CC1
79	-16%	Cc1ncc([N+](=O)[O-])n1Cc1ccc(Cl)cc1
80	10%	CC(C)N1C(=O)N(c2cccc(Cl)c2)C(C)(O)CC1(C)C (stereo not given)
81	-4%	Cc1oc(C(=O)Nc2ccc(C(=O)O)cc2)cc1COc1ccccc1
82	31%[activator]	COC(=O)c1ccc2[nH]c(C)cc(=O)c2c1
83	7%	COc1cccc(Nc2nc3ccccc3c3nncn23)c1
84	-14%	O=C(Nc1ccc(C(=O)N2CCOCC2)cc1)C1CC1
85	-21%	COc1ccc(N2CCN(C(=O)COC(=O)/C=C/c3ccc(OC(F)F)cc3)CC2)cc1
86	-22%	Cc1ccc(S(=O)(=O)NCC(=O)OCC(=O)c2cc(C)n(-c3ccccc3)c2C)cc1
87	-16%	Cc1cc(NC(=O)Nc2cc(F)ccc2F)no1
88	-1%	N/C(=N\N=C\c1cccc(O)c1)c1nonc1N
89	8%	Cc1ccc(O)c(NC(=O)c2ccc3c(c2)C(=O)N(CC(C)C)C3=O)c1
90	5%	Cc1cc(-c2nnc(CCC(=O)NCCc3ccccc3F)o2)no1

Gathered by group, those above containing a cyano group (3)
entry	VDR inhibitor	molecule
13	50µM*	CCCCN1C(=O)/C(=C(/C#N)C(N)=O)c2ccccc21
34	5%	N#Cc1nc(Cc2cccc3ccccc23)oc1N1CCCCC1
77	-4%	N#Cc1ccc(Oc2ccc(S(=O)(=O)N3CCCCC3)cn2)cc1

Two consecutive compounds from above, quoted:
entry	VDR inhibitor	molecule
81	-4%	Cc1oc(C(=O)Nc2ccc(C(=O)O)cc2)cc1COc1ccccc1
82	31%[activator]	COC(=O)c1ccc2[nH]c(C)cc(=O)c2c1

The listing continues.
entry	VDR inhibitor	molecule
91	-6%	COc1cc(CN2CCN(c3cccc(C)c3C)CC2)cc([N+](=O)[O-])c1O
92	-13%	CN(C)c1ccc(S(=O)(=O)N2CCCCC2)cc1NC(=O)CCNC(=O)c1ccco1
93	1%	CCOC(=O)N1CCN(C(=O)CN(c2ccccc2OC)S(=O)(=O)c2ccc(OC)cc2)CC1
94	?	Oc1ccc(Br)cc1-c1cc(-c2ccccc2Cl)[nH]n1
95	-6%	COc1ccc(C(C(=O)NC2CCCCC2)N(C(=O)CCCC(=O)Nc2ccccn2)c2ccc3c(c2)OCCO3)cc1 (stereo not given)
96	5%	CSc1ccc(CCNC(=O)c2sc3ncccc3c2-n2cccc2)cc1
97	-2%	COc1ccc2c(Cl)c(C(=O)NC3CCS(=O)(=O)C3)sc2c1 (stereo not given)
98	-8%	O=S(=O)(Nc1nccs1)c1ccc(Cl)cc1
99	79µM*	C/C=C/C=C/C(=O)N1CC2(CC(c3cccc(NC(=O)CCCCC)c3)=NO2)C[C@H]1C(N)=O (stereo not given in full)
100	-7%&-4%	Cc1ccc(CNC(=O)Cn2cccc2C(=O)c2ccccc2C)cc1
101	13%	O=C(/C(=C(\O)c1ccccc1)c1ncc[nH]1)c1ccccc1
102	-14%	CC(C)CCNC(=O)C1CCC(=O)N1CCc1ccccc1 (stereo not given)
103	-19%	C[C@H](CCC(=O)O)[C@H]1CC[C@H]2[C@@H]3C(=O)C[C@@H]4CC(=O)CC[C@]4(C)[C@H]3CC(=O)[C@]12C
104	1%	COc1ccc2c(c1OC)OCC2C (stereo not given)
105	0%	CC(=O)c1cccc(NC2c3ccccc3C(=O)N2Cc2ccco2)c1 (stereo not given)
106	13%	O=C(Oc1ccc(-c2csnn2)cc1)C1CC1
107	11%	CCOC(=O)c1c(-c2ccccc2)csc1NC(=O)CSc1nc(C)cc(C)n1
108	-13%	CCN1CCN(C(=S)NCCc2ccccc2)CC1
109	-10%	O=C(O)C1CCN(S(=O)(=O)N2CCOCC2)CC1
110	2%	Cc1noc(C)c1C(=O)N1CCC[C@@]2(CCN(C(=O)Nc3cccc(F)c3)C2)C1
111	23%	Cn1c(=O)cc(SCC(=O)N2CCCC2)c2ccc(Cl)cc21
112	-7%	O=S(=O)(c1ccc(Cl)cc1)N1CCN(CCc2ccccc2)CC1
113	17%	Cc1ccc(S(=O)(=O)CC(=O)Nc2c(C)n(C)n(-c3ccccc3)c2=O)cc1
114	9%	COc1ccc(C(C(=O)NC2CCCCC2)N(Cc2cccs2)C(=O)Cc2c[nH]c3ccccc23)cc1OC (stereo not given)
115	18%	CCN(c1ccc(NC(=O)CSCc2c(C)noc2C)cc1)C(C)C
116	8%	COCCOC(=O)C1=C(C)NC(=O)NC1c1ccc(Cl)cc1 (stereo not given)
117	4%	CCCCCC(=O)OCCc1c(C)nc2nc[nH]n2c1=O
118	12%	O=C(NCCN1CCOCC1)C1CCN(c2nc3ccccc3o2)CC1
119	0%	CCOc1ccc(NC(=O)N2CC3CCCN3c3ccccc32)cc1 (stereo not given)
120	8%	NC(=S)N/N=C/c1ccc2cccc(OCc3ccccc3)c2n1
121	-5%	C=CCn1c(=O)c2ccccc2n2c(Sc3nnnn3-c3ccccc3)nnc12
122	-1%	CCOC(=O)c1ccc(NC(=O)C2Cc3ccccc3CN2S(=O)(=O)c2ccc(Cl)cc2)cc1 (stereo not given)
123	-6%	O=C(CSc1ccccn1)N1CCc2ccccc21
124	7%	O=C1CN(C(=O)CSc2nc3cc(Cl)ccc3c(=O)n2Cc2ccccc2)c2ccccc2N1

Source: PubChem
